From PubChem
HSD17B inhib – HSD17B dehydrogenase inhibition; Q99714; recombinant HSD17B10, NADH fluorescence kinetic; many of its hits are not listed in these tables; hit rate 7.6% among 75,000; Potency, µM (titrated, usually from 57.1 µM), inactives show at the top dose activity change, negative = inhibition, actives largely listed as inhibitors; active = well fitted inhibition curve with a large enough effect; inconclusive = small, poorly fitted or top-dose-only effect; inactive = no such curve, though single readings can be large or run the other way;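 note: the protocol describes HADH2 (HSD17B10) and not the HSD17B4 of the title; nearly all actives have a fitted effect of over 70% in size; most hits overshoot -100% by far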
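Enzyme plus compound, 15 min room temperature; substrate mix added (NAD+ 1 mM, beta-hydroxybutyryl-CoA 90 uM final); plates read kinetically for NADH fluorescence. HADH2 was His-tagged, E. coli-derived, 20 nM.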
An asterisk follows results filed as active; ? = inconclusive; & = joins results of further samples; [ ] = remark or other dose. % is set by controls: 0 for no effect and ±100 for the full control effect; potency is the fitted concentration of half-maximal effect. These rows are one share of the data (hit frequency here may not be typical).

smiles	HSD17B inhib
CCOC(=O)c1c(NC(=O)C(F)(OC)C(F)(F)F)sc(C(=O)N2CCCCC2)c1C (stereo unspecified)	-1%
COc1ccc(C2C(=O)N(C3CCCCC3)CC(=O)N2Cc2ccc3c(c2)OCO3)cc1 (stereo unspecified)	4%
CC(C)CCn1cnc2c(cnn2-c2ccc(Cl)cc2)c1=O	1%
CCCCCC(C)N (stereo unspecified)	7%
COc1ccc(-n2c(N)c(Br)c(=O)[nH]c2=O)cc1	18%
Cc1nc2cnc(Oc3cccc(Cl)c3)nc2n(Cc2ccc(F)cc2)c1=O	-4%
COCCOC(=O)C1=C(C)N=C2SCCC(=O)N2C1c1ccc(C(=O)OC)cc1 (stereo unspecified)	-3%
COc1cc(CNc2nc3ccccc3[nH]2)cc(OC)c1OC	1%
O=C(CSc1nnc(C2CCCCC2)o1)N1CCCCC1	10%
CCCC(=O)N1CCN(c2ccc(NC(=O)c3cc4ccccc4o3)cc2Cl)CC1	?
CN(C)c1ncc2nc(-c3ccc(F)cc3)c(=O)n(C3CC3)c2n1	25µM*
CCC(C)Nc1nc2c(c(=O)[nH]c(=O)n2C)n1CCC(C)C (stereo unspecified)	-3%
COc1ccc(CCNC(=O)CSc2nc(N)c(C#N)c(-c3cccs3)c2C#N)cc1OC	?
CCCCCCNC(=O)C(C#N)c1nc2ccccc2nc1N1CCOCC1 (stereo unspecified)	0%
Cc1ccccc1OCCCC(=O)Nc1nccs1	-9%
O=C(O)CCC(=O)N1CCc2cc(S(=O)(=O)Nc3ccc4c(c3)OCCO4)ccc21	-4%
Cc1cccc(NC(=O)C2CCCN(S(=O)(=O)c3c(C)nn(C)c3C)C2)n1 (stereo unspecified)	6%
Nn1c(SCC(=O)NC(=O)NCc2ccccc2)nnc1C1CC1	-10%
O=C(NCc1ccco1)c1sc2cccc(F)c2c1Cl	-9%
Cc1cccn2cc(-c3ccc(S(=O)(=O)N4CCOCC4)cc3)nc12	32µM*
CN1C(=O)SC(Nc2ccc(F)cc2)C1=O (stereo unspecified)	0%
CCCCn1c(N)c(N(CCC(C)C)C(=O)CSc2nnc3ccccn23)c(=O)[nH]c1=O	-18%
O=C(c1ccco1)n1nc(-c2ccccc2)nc1NCc1ccco1	474%[activator]
CC12C(=O)N(c3cccc4cccnc34)C(=O)C1C1C=CC2C1 (stereo unspecified)	4%
CCN(CCNC(=O)C1CCN(S(=O)(=O)CC)CC1)c1ccccc1	7%
O=C(NC1CC1)C1CCC(=O)N1C1CCCC1 (stereo unspecified)	5%
CCCC(=O)N1CCN(c2ccc(NC(=O)c3cc4ccccc4o3)cc2)CC1	10%
O=C(N1CCOCC1)N1CCN(CC(O)COc2ccc3ccccc3c2)CC1 (stereo unspecified)	-5%
CC(=O)Nc1ccc(OC(F)(F)C(F)C(F)(F)F)c(NC(C)=O)c1 (stereo unspecified)	7%
CN(C)CCN1C(=O)C(=O)/C(=C(/O)c2ccc(S(=O)(=O)N3CCOCC3)cc2)C1c1ccccc1 (stereo unspecified)	-8%
O=C(O)CCc1ccc(-c2ccc(F)cc2)n1CC(=O)O	32µM*
COC(=O)c1cc(CC(=O)c2ccc(O)cc2O)c(C)o1	-2%
COc1cc(C)c(S(=O)(=O)N2CCCC2)cc1C	-2%
Cc1cc(C)c(S(=O)(=O)N(CC(=O)NCc2cccnc2)C2CCCCC2)c(C)c1	-1%
CC1(C)Cc2ccccc2-c2nc(NCCCO)n(-c3ccccc3)c(=O)c21	25µM*
COc1ccccc1N1CCN(Cc2nc(N)nc(Nc3ccccc3)n2)CC1	7%
Cc1nnc(SCCn2c(N3CC(C)CC(C)C3)nc3c2c(=O)[nH]c(=O)n3C)s1 (stereo unspecified)	-2%
CCOC(=O)C1CCN(C(=O)N(C)C)CC1	10%
O=C(N1CCOCC1)N(Cc1cccs1)C1CCCC1	-2%
CCOC(=O)c1c(-c2ccc(C)o2)csc1NC(=O)CSc1nnc(C)s1	-26%
CCOC(=O)c1csc(NC(=O)c2ccc(OC)c(OC)c2)n1	33%[activator]
O=C(COc1ccc(Cl)cc1Cl)N(Cc1ccco1)C1CCS(=O)(=O)C1 (stereo unspecified)	1%
COCCN(CC(=O)NCc1ccccc1)C(=O)CCC(=O)Nc1nccs1	4%
CNC(=O)c1c(NC(=O)c2ccc(S(=O)(=O)N3CCOCC3)cc2)sc2c1CCC2	-4%
COc1nc(N)nc(N2CCOCC2)n1	4%
NC(=O)CSc1nnnn1-c1ccc(OC(F)(F)F)cc1	9%
COc1ccc(CNS(=O)(=O)c2ccc(C3CNC(=O)C3)cc2)cc1 (stereo unspecified)	-3%
O=C(NCc1cccs1)c1ccccc1F	-6%
COc1ccccc1-c1cc(C(F)(F)F)nc(S(=O)(=O)CCCC(=O)N2CCOCC2)n1	185%[activator]
Cc1ccc(-c2nc(Nc3ccccc3)n[nH]2)cc1	-6%
Cc1cc(Nc2ccc(C)c(Br)c2)n2nc(C)nc2n1	3%
OCCn1nc2c3ccccc3nc-2n(-c2ccccc2)c1=S	-14%
NC1=NC(c2ccccc2Cl)n2c(nc3ccccc32)N1 (stereo unspecified)	1%
CCOC(=O)Cc1nnc(NC(=O)CSc2nnc3c4ccccc4n(C(C)C)c3n2)s1	-3%
COCCOC(=O)C1=C(C)NC(=O)NC1c1c(F)cccc1Cl (stereo unspecified)	1%
Cc1nnc2sc(-c3cccc4ccccc34)nn12	?
CCC(OC(=O)c1cccs1)C(=O)NCc1ccco1 (stereo unspecified)	-4%
COc1ccc(CN(CC(=O)NCc2ccco2)C(=O)CCC(=O)Nc2ccccn2)cc1	3%
O=C1CN2C(=Nc3ccc(Br)cc3C2c2ccccc2)CCN1 (stereo unspecified)	-6%
CC(C)NC(=O)Cn1c(SCC(=O)N2c3ccccc3CC2C)nc2ccccc21 (stereo unspecified)	-2%

The last three compounds of the section above come first, to join the parts:
smiles	HSD17B inhib
COc1ccc(CN(CC(=O)NCc2ccco2)C(=O)CCC(=O)Nc2ccccn2)cc1	3%
O=C1CN2C(=Nc3ccc(Br)cc3C2c2ccccc2)CCN1 (stereo unspecified)	-6%
CC(C)NC(=O)Cn1c(SCC(=O)N2c3ccccc3CC2C)nc2ccccc21 (stereo unspecified)	-2%
Fc1ccccc1COc1ccc(/C=N/n2cnnc2)cc1	1%
CCN1C(=O)NC(c2cc(Br)ccc2OC)C(C(=O)OC)=C1C (stereo unspecified)	3%
Cc1nccn1-c1c2c(c(C#N)c3nc4ccccc4n13)CCCC2	1%
COC(=O)c1ccc(C(NC(=O)c2ccco2)[C@]2(C)C[C@H]2C2CCCCC2)cc1 (stereo partly specified)	-7%
CCOc1cc(S(=O)(=O)N2CCC(Cc3ccccc3)CC2)c(OCC)cc1-n1cnnn1	25µM*
CC(C)CCNC(=O)C1CCN(S(=O)(=O)c2ccc3c(c2)CCC(=O)N3)CC1	-2%
COc1cccc(C2/C(=C(/O)c3ccccc3)C(=O)C(=O)N2CCCC(=O)O)c1 (stereo unspecified)	-2%
CS(=O)(=O)Nc1ccc(C(=O)NCc2cccnc2)cc1	-2%
COc1ccc2c(CC#N)c[nH]c2c1	-4%
Cc1occc1-c1nnc(SCc2cc(=O)n3cc(Br)ccc3n2)n1C	?
Cc1[nH]nc(-c2ccc(O)c(C)c2O)c1-c1cnn(-c2ccccc2)c1	-16%
CCCCCCCCCCCCCCCC[N+](C)(C)CCN(Cc1ccc(OC)cc1)c1ncccn1	-13%[25.6 µM]
O=C(O)C1CCCCC1C(=O)Nc1ccc2c(c1)CCC2 (stereo unspecified)	0%
COc1cc(NC(=O)C2CCCN(S(=O)(=O)c3cnc[nH]3)C2)cc(OC)c1 (stereo unspecified)	2%
Cn1c(Sc2nc3ccccc3n2C)nc2ccccc21	2%
O=C(Nc1ccccc1F)C1C2C=CC3(O2)C1C(=O)N(c1cccnc1)C3C(=O)NC1CCCCC1 (stereo unspecified)	-2%
O=C(O)C1(C(=O)O)CCN(S(=O)(=O)c2ccccc2)CC1	11%[11.4 µM]
O=C(CC1C(=O)NCCN1C(=O)Nc1ccccc1)Nc1ccc2c(c1)OCCO2 (stereo unspecified)	1%
O=C(CSc1nnc(-c2cccnc2)o1)c1cc2ccccc2oc1=O	?
NCC1OC(OC2C(N)CC(N)[C@@H](O)[C@@H]2OC2O[C@H](CO)[C@@H](O[C@@H]3OC(CN)C(O)C(O)C3N)C2O)C(N)C(O)C1O (stereo partly specified)	0%
O=C(O)CCOc1ccc2c(c1)OCCO2	5%
CNC(=O)Cn1c(=O)n(C)c2ccccc21	1%
OCCN1CCN(CC(O)COc2ccc3ccccc3c2)CC1 (stereo unspecified)	-5%
CC(C)(C)C(=O)/C=C(\N)c1ccncc1	0%
CC(=O)N1CCN(S(=O)(=O)c2ccc(S(=O)(=O)NC3CC3)cc2)CC1	12%
COc1ccc(OCCOC(=O)c2cccc(-n3cnnn3)c2)cc1	5%
Cn1c(=O)c(=O)n(C)c2cc(S(=O)(=O)N3CCCCCC3)ccc21	?
CN(Cc1cc2ccccc2[nH]c1=O)C(=O)C1CCCCC1	-12%
Cc1ccc(C(c2nnnn2CS(=O)(=O)c2ccc(C)cc2)N2CCC(C(N)=O)CC2)cc1 (stereo unspecified)	7%
CC(NC(=O)CCNS(=O)(=O)c1ccc2c(c1)c(=O)n(C)c(=O)n2C)c1ccccc1 (stereo unspecified)	-5%
Cc1cc(OCC(=O)N2CCCC2)cc(C)c1Cl	5%
CCc1ccc(OCc2nnc(SCCN3CCOCC3)n2CC)cc1	-14%
CCN(CC)CCN1C(=O)C2C3c4ccccc4C(c4ccccc43)C2C1=O (stereo unspecified)	13%
Cc1ccc(/C=N/c2sc3c(c2C#N)CCCCC3)o1	32µM*
COC(=O)c1ccc(NC(=O)c2ccc(N(C)S(C)(=O)=O)cc2)cc1	31%[activator]
CC(=O)N1CCC(N(CCN2CCOCC2)C(=O)Nc2ccc(Cl)c(Cl)c2)CC1	1%
C=CCN1C(=O)C(O)(CC(=O)c2ccc(N)cc2)c2ccccc21 (stereo unspecified)	-1%
COc1ccccc1NS(=O)(=O)c1ccc(C)c(C(=O)NCC2CCCO2)c1 (stereo unspecified)	-5%
COC(=O)C1=C(C)N(Cc2ccccc2)C2=C(C(C)=O)C(c3ccccc3)[C@@](O)(C(=O)OC)C(=O)N2C1c1ccccc1 (stereo partly specified)	-1%&-4%[11.4 µM]
CCOc1ccc2nc(SCc3ccc(C(=O)OC)o3)[nH]c2c1	5%
CCN(CC)S(=O)(=O)c1cc(Br)c(C)cc1OC	-6%
CCn1c(SCC(=O)Nc2cc(C)ccc2C)nnc1-c1cnccn1	5%
O=c1c2cc(-c3ccccc3)sc2ncn1/N=C/c1ccco1	25µM*
Cc1[nH]c2ccccc2c1C(=O)CSc1nc2cc(S(=O)(=O)N3CCCCC3)ccc2o1	3%
O=C(O)CN(Cc1ccco1)S(=O)(=O)c1ccccc1	?
O=c1cnnc(SCCc2ccccc2)[nH]1	25µM*
O=C(Nc1cccc(F)c1)C1C2C=CC3(CN(CCCN4CCOCC4)C(=O)C13)O2 (stereo unspecified)	5%
CCOC(=O)N1CCN(c2c(N3CCOCC3)c(=O)c2=O)CC1	6%
Cc1csc(=NC(=O)c2ccccc2)n1Cc1ccco1	-9%
Cc1ccc(S(=O)(=O)NC2=NCN(Cc3ccccc3)CN2)cc1	3%
COC(=O)c1sccc1NC(=O)c1cc2c(s1)CCCC2	32µM*
Cc1cccc(C)c1-n1nnnc1SCSc1nnnn1-c1c(C)cccc1C	5%
O=C(NCc1cccs1)C1CCN(S(=O)(=O)c2cccc3cccnc23)CC1	5%
O=C(Cn1cnc2c(nnn2Cc2ccc(Cl)cc2)c1=O)NC1CCCC1	0%
Cn1c(-c2ccc(Br)o2)nc2ccccc21	-13%
O=C(NCc1cccs1)c1ccccc1C(=O)NCc1cccs1	3%
COc1ccccc1-c1nnc(Nc2nc3c(OC)cccc3s2)o1	69%[activator]
COc1ccc(NC(=O)CSc2nc3c(c(=O)n2-c2ccccc2)SCC3)c(OC)c1	-4%
CCOCCCNC(=O)c1ccc2c(c1)ncn2C1CCCC1	8%
Cc1cccc(C2CC(c3ccc(Cl)cc3)Nc3nc(N)nn32)c1 (stereo unspecified)	9%
COc1ccc(S(=O)(=O)NCc2cn3c(C)csc3n2)cc1F	2%
Cc1cc(C)n2cc(CSc3nnnn3C)nc2n1	25µM*
COc1cc(OC)cc(C(=O)Nc2cccc(C(C)=O)c2)c1	1%

An excerpt from above in order of SMILES length, rising:
smiles	HSD17B inhib
COc1ccccc1-c1nnc(Nc2nc3c(OC)cccc3s2)o1	69%[activator]
Cc1cccc(C2CC(c3ccc(Cl)cc3)Nc3nc(N)nn32)c1 (stereo unspecified)	9%
Cc1cccc(C)c1-n1nnnc1SCSc1nnnn1-c1c(C)cccc1C	5%
O=C(NCc1cccs1)C1CCN(S(=O)(=O)c2cccc3cccnc23)CC1	5%
